Screening results from PubChem.
H5N1 antiviral: MDCK cell protection from H5N1 avian flu | cytopathic effect, luminescence, 72 h; active compounds read high; no value below 0 was filed and about half of the inactive calls have no number; reference of the scale not given here | inhibition, % at 50 µM | 96,000 tested, 0.07% active | AID 740, 2007; in the data active means inhibition above about 25%
* marks the source's active call; other numbers are inactive results; i = inactive. A portion of the library, so the mix of outcomes need not match the whole.

No. | Compound | H5N1 antiviral
1 | O=C(C(Cc1ccccc1)NS(=O)(=O)c1ccc(F)cc1)N1CCC2(CC1)OCCO2 (stereo unspecified) | i
2 | c1cc2c3c(cccc3c1)C(N1CCCCCC1)=N2 | 1.3
3 | C=CCn1c(SCC(=O)OCc2ccccc2)nc2c1c(=O)n(C)c(=O)n2C | 0.8
4 | C/C(=C1/SC(=S)N(CCC(=O)O)C1=O)c1ccc(O)cc1 | 0.6
5 | O=C(c1ccc(Cl)cc1)N1CCC(O)(CSc2ccccc2)CC1 | i
6 | CCOC(=O)CSc1nc2sc3c(c2c(=O)n1CC)CC(C)(C)OC3 | 2.3
7 | COc1ccc(C(O)c2nc3ccccc3n2C)cc1OC (stereo unspecified) | i
8 | CC(=O)c1c(C)nc(-c2ccc(Cl)cc2Cl)n1O | i
9 | COc1ccc(COC(=O)C2=C(C)NC(=O)NC2c2ccc(O)c(OC)c2)cc1 (stereo unspecified) | i
10 | CCn1c(=N)n(CC(=O)C23CC4CC(CC(C4)C2)C3)c2ccccc21 | i
11 | Cc1cc(C)nc(NC(=O)c2cc3ccccc3o2)n1 | i
12 | CCCSc1nc2c(cnn2-c2ccc(Cl)cc2)c(=O)[nH]1 | i
13 | COc1ccc(NC(C)=O)cc1NC(C)C(=O)Nc1ccc(F)c(F)c1F (stereo unspecified) | i
14 | CC(C)c1nc(SCC(=O)N2CCN(c3ccccc3)CC2)c2c(=O)n(C)c(=O)n(C)c2n1 | 1.2
15 | c1coc(CNCC2OCCc3ccccc32)c1 (stereo unspecified) | 0.5
16 | Cc1nc2nc(Cc3ccccc3)[nH]n2c(=O)c1Cl | 0.8
17 | CN(C(=O)CSc1nnc(Cc2cccc3ccccc23)n1N)C1CCS(=O)(=O)C1 (stereo unspecified) | 0.7
18 | COC(=O)C1=C(C)Nc2nnnn2C1c1ccc(Cl)cc1Cl (stereo unspecified) | 3.3
19 | CSc1ccccc1C(=O)Nc1cc(C)cc(C)c1 | 0.3
20 | COc1cccc(CNC(=O)C2CCN(S(=O)(=O)c3ccc(F)cc3)CC2)c1 | 1.1
21 | CN1C(=O)c2ccc(NC(=O)c3c(F)c(F)c(F)c(F)c3F)cc2C1=O | 1.8
22 | CCOCCn1c(SCCCc2ccccc2)nc2c1c(=O)[nH]c(=O)n2C | i
23 | COc1ccccc1CN1CCCC(C(=O)N(C)Cc2ccccc2)C1 (stereo unspecified) | i
24 | CC1(C)CC(C2N3CC4(C)CN2CC(C)(C3)C4=O)CCO1 (stereo unspecified) | 0.2
25 | Nn1c(SCC(=O)N2CCN(S(=O)(=O)c3ccc(Cl)cc3)CC2)nnc1-c1cccs1 | 0.8
26 | CC(=NCc1cccnc1)c1c(O)n(-c2ccccc2)c(=O)[nH]c1=O | 0.8
27 | COc1ccc(S(=O)(=O)Cc2ccc(C(=O)N3CCN(c4ccccc4)CC3)o2)cc1 | 2.2
28 | CCOC(=O)c1cccc(NC(=O)C2CCCN(S(=O)(=O)c3c(C)nn(C)c3C)C2)c1 (stereo unspecified) | 1.2
29 | COc1ccc(C/C(N)=N/OC(=O)Cc2ccc(OC)c(OC)c2)cc1 | i
30 | CCOC(=O)C1=CN(C)C=C(C(=O)OCC)C1c1ccsc1 | i
31 | Cn1c(=O)c2c(ncn2CC(=O)N2CCN(c3ccc(F)cc3)CC2)n(C)c1=O | 1.3
32 | Cc1ccc2cc(CN(CC3CCCO3)C(=O)C(C)C)c(=O)[nH]c2c1 (stereo unspecified) | i
33 | CCOC(=O)/C=C1\SCC(=O)N1Cc1nnc(-c2ccccc2Br)o1 | 1.9
34 | CCOC(=O)Cn1c(=O)c2c(nc(N3CCCCC3)n2C)n(C)c1=O | 0.5
35 | CNC(=O)C(Sc1ccccc1)c1ccccc1 (stereo unspecified) | i
36 | CCC(C)NC(=O)C1c2ccccc2C(=O)N(c2ccc(OC)cc2)C1c1ccc(OC)cc1 (stereo unspecified) | i
37 | Cc1ccc2c(c1)-c1c(ssc1=S)C(C)(C)N2C(=O)CN1C(=O)c2ccccc2C1=O | i
38 | CCOc1ccc(NC(=O)c2ccco2)cc1 | i
39 | CN1CCN(c2nc(-c3cccs3)cc(C(F)(F)F)n2)CC1 | i
40 | COC(=O)c1ccccc1NC(=O)CSc1nc(-c2ccco2)cc(C(F)(F)F)n1 | i
41 | CC(c1ccco1)N(C(=O)c1ccc(S(=O)(=O)N2CCCCC2)cc1)c1ccccn1 (stereo unspecified) | 0.2
42 | CNC(=O)c1sc(SC)cc1-c1ccc(Cl)cc1 | i
43 | OCCN1CCN(c2nc(-c3ccccc3)nc3c2oc2ccccc23)CC1 | 0.6
44 | CCC1CCCN1Cn1cnc2c([nH]c3ccccc32)c1=O (stereo unspecified) | 0.2
45 | Cc1ccc(C2(C(F)(F)F)NC(=O)N3CCCN=C3S2)cc1 (stereo unspecified) | 2.2
46 | COc1ccc2c(c1)c(C(C)=O)c(C)n2-c1ccccc1 | 1.5
47 | Nc1nonc1-c1nc2ccccc2n1CC(=O)N1CCN(c2ccc(F)cc2)CC1 | 1.3
48 | CCCCn1c(-c2nn(C)c(C)c2Cl)n[nH]c1=S | 0.8
49 | COc1ccc(/C(N)=N/OC(=O)Cc2ccc(OC)c(OC)c2)cc1 | 0.9
50 | COc1ccc2c(c1)c(N=O)c(O)n2C | 2.6

Next part
No. | Compound | H5N1 antiviral
51 | Cn1nc(C(=O)Nc2cccc(C(F)(F)F)c2)ccc1=O | i
52 | Cc1cc(C)c[n+](CC(=O)c2cc3ccccc3oc2=O)c1 | 1.6
53 | COc1cc(CNCCN2CCOCC2)ccc1OCc1ccccc1Cl | 0.1
54 | Cc1ccccc1C(=O)N=c1c(C#N)cc2c(=O)n3cccc(C)c3nc2n1Cc1ccco1 | 5.0
55 | CC(C)c1nnc(NC(=O)c2ccc(S(=O)(=O)N3CCOCC3)cc2)s1 | i
56 | CCCOC(=O)NC(CC)COC(=O)Nc1cccc(C)c1C (stereo unspecified) | i
57 | O=C1NC(=O)C2C1C(c1ccccc1)N1C3C(=O)NC(=O)C3C(c3ccccc3)N21 (stereo unspecified) | 0.7
58 | Cc1ccc(N2C(=O)c3cccc4c(N5CCN(C)CC5)ccc(c34)C2=O)c2cccnc12 | 0.1
59 | CCc1cc(=O)n2[nH]c(C)c(-c3ccccc3OC)c2n1 | 1.2
60 | CCOC(=O)Cc1csc(N/N=C/c2ccc(C(F)(F)F)cc2)n1 | i
61 | CC1(C)CC(=O)C(C=Nc2cccnc2)=C(O)C1 | i
62 | CCC(=NCC1CCCO1)c1c(O)[nH]c(=O)[nH]c1=O (stereo unspecified) | i
63 | CC(=O)c1cccc(NC(=O)C=C(C)C)c1 | i
64 | O=C(c1ccccc1)c1sc(N2CCCCCC2)nc1-c1ccccc1 | i
65 | O=C(CC(=O)N/N=C\c1c(Cl)cccc1Cl)NCc1ccccc1 | 1.0
66 | Cc1nnc(C)n1/N=C/c1ccccc1 | i
67 | Cc1[nH]nc2c1C(c1cccc(OC(=O)N3CCOCC3)c1)C(C#N)=C(N)O2 (stereo unspecified) | 1.1
68 | COc1cc(NC(=O)c2noc3c2CCCC3)c(OC)cc1Cl | i
69 | COc1cccc(NC(=O)N2CCCC2C(=O)NCC(C)C)c1 (stereo unspecified) | 0.5
70 | CCSc1nnc(NC(=O)CSc2nc3c(cc2C#N)CCCC3)s1 | 0.4
71 | CC(C)CCNC(=O)C(c1ccco1)N(CC1CCCO1)C(=O)Cn1nnc2ccccc21 (stereo unspecified) | 0.4
72 | Cc1cc(N2CCN(c3ccccc3)CC2)nc(-c2ccccc2)n1 | i
73 | Cc1ccc(S(=O)(=O)N(C)CC(=O)Nc2ccccc2)cc1 | 0.1
74 | Cn1c(=O)c2c(nc(CN3CCC(C(N)=O)CC3)n2CCCc2ccccc2)n(C)c1=O | 1.6
75 | O=C(c1cnc(-c2ccc(Cl)cc2)s1)c1ccc(Cl)cc1Cl | i

Other results
#	smiles	H5N1 antiviral
76	Nc1ccc(Nc2ccccc2)cc1	i
77	NC(=O)c1csc(-c2ccncc2)n1	1.6
78	COCCn1c(SCC(=O)Nc2ccc(S(=O)(=O)N(C)C)cc2)nc2ccccc21	0.1
79	CCOc1ccc(/C=C/C(=O)c2c(O)c3ccccc3oc2=O)cc1	i
80	CC1CCCCN1C(=O)c1cnn2c(C(F)(F)F)cc(-c3ccco3)nc12 (stereo unspecified)	1.5
81	Cc1onc(-c2ccccc2)c1C(=O)N1CCOCC1	0.8
82	COc1ccc(N(C(=O)c2cccc(OC)c2OC)C2C=CS(=O)(=O)C2)c(OC)c1 (stereo unspecified)	1.2
83	O=C(Cc1ccc(S(=O)(=O)N2CCOCC2)s1)Nc1nc2c(s1)CCCC2	4.2
84	CCNC(=O)c1c(C)[nH]c(C(=O)OCC)c1C	0.8
85	CC1(C)Cc2c(C#N)c(SCC(=O)c3ccccc3)nc(N3CCOCC3)c2CS1	i
86	Cc1ccc(NC(=O)Cn2c(=O)n(Cc3ccco3)c(=O)c3ccccc32)c(C)c1	i
87	CC(=O)C1=C(O)C(=O)N(CCC(=O)O)C1c1ccccc1Cl (stereo unspecified)	0.4

7 records picked at random from the list so far:
#	smiles	H5N1 antiviral
25	Nn1c(SCC(=O)N2CCN(S(=O)(=O)c3ccc(Cl)cc3)CC2)nnc1-c1cccs1	0.8
11	Cc1cc(C)nc(NC(=O)c2cc3ccccc3o2)n1	i
60	CCOC(=O)Cc1csc(N/N=C/c2ccc(C(F)(F)F)cc2)n1	i
83	O=C(Cc1ccc(S(=O)(=O)N2CCOCC2)s1)Nc1nc2c(s1)CCCC2	4.2
5	O=C(c1ccc(Cl)cc1)N1CCC(O)(CSc2ccccc2)CC1	i
70	CCSc1nnc(NC(=O)CSc2nc3c(cc2C#N)CCCC3)s1	0.4
17	CN(C(=O)CSc1nnc(Cc2cccc3ccccc23)n1N)C1CCS(=O)(=O)C1 (stereo unspecified)	0.7

(listing goes on)
#	smiles	H5N1 antiviral
88	N#Cc1ccccc1CN1C(=O)S/C(=C/c2cccn2-c2cccc(C(=O)O)c2)C1=O	i
89	O=C(NCc1ccccc1)C1CCN(S(=O)(=O)N2CCCCCC2)CC1	0.1
90	O=c1cnnc(NCc2ccccc2)[nH]1	0.7
91	O/N=C1/CCCSc2ccccc21	0.0
92	COc1ccc(OC)c(N(CC(=O)Nc2ccc(NC(C)=O)cc2)S(C)(=O)=O)c1	1.4
93	O=c1[nH]c(CN2CCN(C/C=C/c3ccccc3)CC2)nc2ccccc12	i
94	Cc1ccc2nc(Nc3ccc4[nH]c(=O)[nH]c4c3)c(-n3nc(C)cc3C)nc2c1	5.1
95	O=c1c2ccccc2nc(CSc2ncnc3nc[nH]c23)n1-c1ccc(Cl)c(Cl)c1	i
96	COc1ccc(-c2cc(-c3ccc(OC)cc3)nc(-c3ccc4c(c3)NC(=O)CO4)c2)cc1	i
97	CCCCCOCC1CC(C/C(C)=N/Nc2nc(-c3ccccc3)cs2)C(=O)O1 (stereo unspecified)	0.1
98	COCCN(C(=O)CCCC(=O)Nc1ccccn1)C(C(=O)NC1CCCC1)c1ccc(C)cc1 (stereo unspecified)	i
99	CS(=O)(=O)N(CC(=O)Nc1ccc2c(c1)OCO2)Cc1ccc(Cl)cc1	0.3
100	c1ccc2sc(NC3=NCN(C4CCCCC4)CN3)nc2c1	i
101	Cc1cc(SCC(=O)c2ccccc2)nc(C)n1	i
102	CC(=O)c1cc2c(cc1NC(=O)CN1CCC(Cc3ccccc3)CC1)OCO2	i
103	Cc1ccc(Nc2ncnc3sc(C)c(C)c23)cc1C	16
104	Cc1ccccc1OCC(=O)NCC1CCCO1 (stereo unspecified)	i
105	O=C1CSC(=Nc2ccccc2)N1	i
106	CCOc1ccccc1NC(=O)CSc1nnc(-c2cnccn2)n1C	0.9
107	COc1ccc(-c2cc(C(=O)N3CCN(C(c4ccccc4)c4ccccc4)CC3)no2)cc1	2.6
108	Cc1c(O)nc(SC2CC(=O)N(c3ccccc3)C2=O)[nH]c1=O (stereo unspecified)	i
109	CCOC(=O)CN1CC23C=CC(O2)C(C(=O)O)C3C1=O (stereo unspecified)	0.2
110	Cc1ccc(C)c(NC2=NS(=O)(=O)c3ccccc32)c1	0.9
111	CCCCOCCCNC(=O)COc1ccccc1	i

Part of the list above, as labelled records.
105	O=C1CSC(=Nc2ccccc2)N1
- H5N1 antiviral: i
106	CCOc1ccccc1NC(=O)CSc1nnc(-c2cnccn2)n1C
- H5N1 antiviral: 0.9
107	COc1ccc(-c2cc(C(=O)N3CCN(C(c4ccccc4)c4ccccc4)CC3)no2)cc1
- H5N1 antiviral: 2.6
108	Cc1c(O)nc(SC2CC(=O)N(c3ccccc3)C2=O)[nH]c1=O (stereo unspecified)
- H5N1 antiviral: i

Further structures follow.
#	smiles	H5N1 antiviral
112	CCCCCNC(=O)c1cc(S(=O)(=O)N2CCCCC2)ccc1F	1.8
113	CC(=O)Nc1ccc(C(=O)Cn2nnc3ccccc3c2=O)cc1	i
114	CCOc1ccc2c(c1)N(C(=O)CN1C(=O)CCC1=O)C(C)(C)C=C2C	2.1
115	O=C(Nc1ccc(S(=O)(=O)N2CCCCC2)cc1)c1ccc(CN2CCc3ccccc3C2)cc1	i
116	C/C(=N\N=C(c1ccccc1)c1ccccc1)c1cccs1	i
117	COC(=O)CC1=NC(=O)CS1	i
118	O=C(OCC(=O)N1CCN(C(=O)c2ccco2)CC1)c1cc(-c2cccc(Br)c2)nc2ccccc12	i
119	Cc1cc(C(=O)Nc2ccon2)cs1	0.9
120	N[C@@H](Cc1c[nH]c2ccccc12)c1nnc(SCc2ccc(Cl)cc2)o1	i
121	CCOc1cc(OCC)cc(C(=O)Nc2cccnc2)c1	i
122	CCOC(=O)C1=C(c2ccccc2)O/C(=C(\C(=O)OC)C(F)(F)F)S1	0.4
123	Cc1ccc(CNC(=O)CCCn2c(=O)[nH]c3ccccc3c2=O)cc1	0.3
124	COc1ccc(CN2C(=O)NC3(CCCCC3)C2=O)cc1F	i
125	CCOC(=O)C1=C(C)NC(=O)NC1	i
126	COc1ccc(N2CCN(C(c3cc(OC)ccc3OC)c3nnnn3Cc3ccco3)CC2)cc1 (stereo unspecified)	i
127	Cc1ccc(C(=O)N2CCSCC2)cc1	i
128	CCCCn1c(O)c(C(C)=Nc2ccc(OCC)cc2)c(=O)[nH]c1=O	i
129	CCOC(=O)c1c(NC(=O)CSc2nnc(CNc3ccc(F)cc3)o2)sc(C)c1C	i
130	CCOC(=O)Cn1c(=O)oc2cc(S(=O)(=O)N3CCCC(C(=O)OCC)C3)ccc21 (stereo unspecified)	1.3
131	Cc1ccc(-c2ccc(CCC(=O)O)n2-c2ccc(O)cc2)cc1	1.0
132	CCC1(CC)C(=O)N(C)C(=O)NC1=Nc1ccccc1	i
